# RanGTP-Impb inh: disruptors of Ran-importin-beta complex formation – biochemical, FRET, CFP-Ran, YFP-importin-beta, homogeneous, primary screen. cell-free CFP-Ran/YFP-importin-beta FRET ratio. inhibition, % (concentration not given with the values). 300,000 tested, 1.1% active;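 active = most replicates above 15%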;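 also: 0% = DMSO wells and 100% = Ran loaded with GDP instead of GTP; wells of about 40 µL received 100 nL stock; the first replicate is given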
# Beta apoptosis: beta cell apoptosis inhibition. 300,000 tested, 0.8% active. INS-1E cytokine-induced death, ATP luminescence, 48 h; percent of positive-control rescue, neutral wells zero. AID 435005. protection from apoptosis, % (test concentration not listed);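 active = all replicates at 75% or more, or half of them and the mean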;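 also: 0% = cytokine-treated negative control wells and 100% = positive control rescue; higher means more ATP so stronger rescue from cytokine killing; wells of about 40 µL received 100 nL stock; the first replicate is given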
# Bfl-1 A1 inh: inhibitors of the anti-apoptotic protein A1, read as caspase activation; AID 2462; caspase activation, % (concentration not given with the values); MEF A1-2A-BIM cells, Caspase-Glo 3/7 luminescence, 3 h; percent of clofoctol response, vehicle zero; 330,000 tested, 0.066% active;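 active = over half of replicate activation scores above 10%, or exactly half above 10 with the replicate mean above 10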;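 also: wells of about 30 µL received 50 nL stock; many hits fall short of the cut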
# Calb FLC: C. albicans growth modulation with fluconazole. C. albicans CaCi-2 (fluconazole-resistant clinical isolate) + fluconazole, Alamar Blue growth, 48 h. growth inhibition, % (no concentration beside the values). 300,000 tested, 0.57% active. AID 1979;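 active = most replicates above 75%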;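 also: all wells also contain fluconazole at 8 µg/ml as a sub-toxic cotreatment; 0% = median of DMSO wells and 100% = median of geldanamycin control wells; wells of about 8 µL received 7.5 nL stock; the first replicate is given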
# LANA-H2A inh: blocks KSHV LANA binding to histone H2A/H2B; Q9QR71; cell-free LANA-H2A/H2B peptide, fluorescence polarization; inhibition, % (no concentration beside the values); 320,000 tested, 0.6% active; AID 2629; in the data active = inhibition mostly above about 10%, no sharp cut-off; inactive = mostly below about 6.7%;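 also: stock transfer was 7.5 nL into about 10 µL; 0% = median of vehicle wells and 100% = median of positive control wells; one replicate is shown; the record names a cut of 25% in any replicate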
# T cruzi repl: blocks replication of Trypanosoma cruzi | 300,000 tested, 1.4% active | inhibition, % (no concentration beside the values) | T. cruzi beta-gal in NIH3T3, luminescence, 90 h;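 active = mean inhibition across valid replicates above about 55%, limit read from the data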;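 also: signal also drops with host cell toxicity which is not excluded here; 0% = plate median of DMSO wells and 100% = zero luminescence signal; higher percent means less beta-gal luminescence so fewer parasites; stock transfer was 50 nL into about 50 µL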
# UCH37 DUB inh: human UCH37 deubiquitinating enzyme inhibition | Q9Y5K5 | 330,000 tested, 0.33% active | inhibition, % (no concentration beside the values) | purified proteasome/UCH37, Ub-AMC cleavage fluorescence | AID 588478;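 active = mean of two replicates above 20%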;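 also: 0% = compound-free wells with enzyme and 100% = wells lacking proteasome; stock transfer was 100 nL into about 20 µL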
# Target sequence (Q9Y5K5 whole entry, looked up): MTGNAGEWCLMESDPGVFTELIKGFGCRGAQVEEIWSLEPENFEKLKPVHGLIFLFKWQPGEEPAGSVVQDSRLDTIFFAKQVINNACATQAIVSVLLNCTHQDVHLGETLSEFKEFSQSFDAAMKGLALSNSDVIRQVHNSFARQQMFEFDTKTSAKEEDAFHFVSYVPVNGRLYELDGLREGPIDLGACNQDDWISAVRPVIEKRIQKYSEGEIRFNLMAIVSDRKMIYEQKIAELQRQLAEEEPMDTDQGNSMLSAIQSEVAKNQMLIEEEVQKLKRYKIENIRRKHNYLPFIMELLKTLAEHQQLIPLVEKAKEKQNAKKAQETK
#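 system = Proteasome-associated human UCH37 deubiquitinase | amount = 0.15 nM proteasome as dispensed | medium = pH 7.4 Tris-HCl (50 mM) with ovalbumin, ATP-MgCl2, DTT | incubation = 30 min preincubation with enzyme, 25 min cleavage at room temperature | detection = AMC fluorescence 355/460 nm | read-out basis = percent inhibition | controls = no-proteasome and no-compound wells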
# B2AR ag: agonists of human beta-2 adrenergic receptor inducing internalization; Am2.2-beta2AR cells, FAP receptor internalization, flow cytometry; reference of the scale not given here; response, % (test concentration not listed); 340,000 tested, 0.43% active; AID 504454;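 active = response above a set limit, near 3 SD of response in nonfluorescent compounds, cut at about 42% in these data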;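 also: stock transfer was 100 nL into about 11 µL; a reference agonist was the positive control; negative values mostly stem from fluorescent compounds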
# Target sequence (P07550 whole entry, looked up): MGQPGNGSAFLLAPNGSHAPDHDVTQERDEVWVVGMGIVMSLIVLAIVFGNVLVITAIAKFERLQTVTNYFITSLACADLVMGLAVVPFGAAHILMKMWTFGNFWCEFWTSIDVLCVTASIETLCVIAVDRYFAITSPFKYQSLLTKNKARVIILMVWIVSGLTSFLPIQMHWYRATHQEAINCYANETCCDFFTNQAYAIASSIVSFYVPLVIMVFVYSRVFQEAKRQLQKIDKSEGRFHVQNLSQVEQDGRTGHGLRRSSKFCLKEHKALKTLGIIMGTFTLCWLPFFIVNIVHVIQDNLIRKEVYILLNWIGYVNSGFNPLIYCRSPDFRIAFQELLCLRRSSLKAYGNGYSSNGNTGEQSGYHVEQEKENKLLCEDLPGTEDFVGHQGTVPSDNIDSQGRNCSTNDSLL
# Numbers without * were called inactive; · = no result given.
# Below each compound – RanGTP-Impb inh | Beta apoptosis | Bfl-1 A1 inh | Calb FLC | LANA-H2A inh | T cruzi repl | UCH37 DUB inh | B2AR ag
(1) COc1cc(OC)cc(C(=O)NC(=S)NNC(=O)[C@H]2C[C@@H]2c2ccccc2)c1
 : -2.8 | 4 | 0.2 | -27 | -1.0 | -15 | 1.6 | 0
(2) Cc1c(C(=O)N2CCN(Cc3ccccc3)CC2)oc2c1C(=O)CCC2
 : 4.9 | 0 | 0.6 | 1 | 5.9 | 0 | 0.9 | -4
(3) NS(=O)(=O)c1ccc(N=Nc2c(-c3ccccc3)[nH]n(-c3nc(-c4ccccc4)cs3)c2=O)cc1
 : -1.4 | 68 | -1.2 | 27 | 0.3 | 42 | 5.4 | 1
(4) CCCCc1ccc(NC(=O)CSC2=NN3CCCC(=O)N=C3S2)cc1
 : -1.1 | -1 | -0.6 | -4 | -8.1 | 20 | 1.8 | 71*
(5) CC(C)(C)c1ccc(S(=O)(=O)NCc2ccc(C(=O)N3CCOCC3)cc2)cc1
 : -3.2 | 0 | 0.1 | -11 | -6.8 | 2 | 3.2 | 30
(6) C=COC(=O)CSc1snc(SCC(=O)OC)c1C#N
 : 7.0 | -10 | 1.4 | 0 | 7.3 | 7 | 3.4 | 16
(7) Cc1cc2oc(=O)cc(CN3CCOCC3)c2cc1Cl
 : 2.5 | 7 | -0.1 | -2 | 6.9 | -4 | -1.2 | -7
(8) COc1ccc(N2CCOCC2)c(NC(=O)c2cc3ccccc3o2)c1
 : -0.6 | 2 | -0.7 | -36 | 1.5 | 21 | -0.1 | 13
(9) O=c1c2c3c(sc2nc2n1CCCC2)CCC3
 : -0.1 | 8 | -0.2 | -6 | 1.4 | -5 | -0.9 | -3
(10) COc1ccc(CNS(=O)(=O)c2cc(CN3C(=O)c4cccnc4C3=O)ccc2OC)cc1
 : 1.7 | -1 | 0.5 | 20 | -0.5 | -18 | · | -4
(11) CC1(C)NC(=O)N(CCOc2ccc3c(c2)CCC3)C1=O
 : 3.7 | -8 | 1.5 | -13 | 2.9 | -12 | -1.4 | -4
(12) Cc1[nH]c2ccccc2c(=O)c1CN1CCCCCC1
 : 4.3 | -3 | 1.2 | · | 1.6 | -3 | 1.5 | 3
(13) CCc1ccccc1NC(=O)CSc1nnc(-c2ccncc2)o1
 : 4.9 | -14 | 0.0 | -2 | 3.6 | 1 | 1.0 | -11
(14) Cc1ccc(/C=C/C(=O)Oc2ccc(C#N)cc2)o1
 : -2.4 | 8 | 0.2 | 5 | 0.1 | -11 | · | ·
(15) Cc1ccc2c(c1)N(C(=O)CCC(=O)NC1CCC(C)CC1)CCO2 (stereo unspecified)
 : -0.2 | -5 | -0.3 | -6 | -2.8 | 1 | 5.6 | -9
(16) O=C1C=C(c2ccc(CO)cc2)C[C@@H](c2ccc3c(c2)OCO3)C1
 : · | 3 | -0.4 | · | 1.3 | · | -2.4 | -3
(17) Cc1cc(Cl)c(C(=O)Nc2cccc(C(F)(F)F)c2)c(C)n1
 : -1.5 | -1 | 1.0 | -25 | -3.2 | 30 | 3.7 | -1
(18) CC1(C)Cc2c(cnn2-c2cccc(F)c2)C(NC(=O)C2CCOCC2)C1 (stereo unspecified)
 : 1.7 | 7 | 0.9 | 4 | 1.3 | 4 | 0.4 | -2
(19) CCOc1ccc(N(CC(=O)NC2CCCC2)S(=O)(=O)c2c(C)[nH]c(=O)[nH]c2=O)cc1
 : -2.6 | 4 | 0.2 | 0 | -2.2 | -3 | 9.0 | -4
(20) O=C(NC(=S)NNC(=O)c1ccccc1O)c1ccco1
 : 2.3 | 0 | -0.3 | 41 | -163 | -10 | 10 | 1
(21) CCCN1CN=C(Nc2nc3ccccc3o2)NC1
 : -4.3 | 0 | 0.6 | 0 | 4.4 | -8 | 3.4 | -5
(22) CC(C)NC(=O)c1cc(=O)n(C)c(=O)n1C
 : 4.8 | -2 | 0.5 | 3 | -3.4 | -12 | -0.1 | -5
(23) COc1ccc(C(=O)OCC(=O)NCCc2ccc(F)cc2)cc1S(=O)(=O)N1CCOCC1
 : · | 0 | -0.6 | · | 2.5 | · | 7.1 | 3
(24) COc1ccc(N(CC(=O)Nc2cccc(C(F)(F)F)c2)S(C)(=O)=O)cc1
 : 6.8 | -4 | 0.3 | 21 | 0.2 | 4 | 2.8 | -6
(25) Nn1c(SCc2ccc([N+](=O)[O-])cc2)nc2ccccc2c1=O
 : 1.6 | -3 | 1.2 | -7 | 1.7 | 29 | 1.4 | -4
(26) COc1ccc(OC)c(NC(=O)C2CCN(Cc3cnn(-c4ccccc4)c3-n3cccc3)CC2)c1
 : 1.0 | 0 | -0.1 | 25 | -2.8 | 35 | 2.6 | -2
(27) Cc1ccc(C(=O)OCC(=O)Nc2nc(-c3ccccc3)cs2)cc1NC(=O)c1ccco1
 : -0.6 | 1 | -1.0 | 4 | 0.1 | -1 | 0.5 | 54*
(28) O=C(COC(=O)/C=C/c1ccc(OC(F)F)cc1)Nc1ccc2[nH]c(=O)[nH]c2c1
 : · | -4 | -0.5 | · | 0.8 | · | 5.3 | -1
(29) COc1ccc(C(=O)Nc2cccc(-c3cnc4ccccc4n3)c2)cc1
 : 1.9 | 7 | -1.5 | 1 | 2.9 | -9 | 0.6 | 1
(30) CCOC(Cn1ccc(=O)[nH]c1=O)OCC
 : 2.7 | -8 | -0.1 | 2 | 1.9 | -2 | 2.0 | 3

# Looked up above.
# Result for O=C(COC(=O)/C=C/c1ccc(OC(F)F)cc1)Nc1ccc2[nH]c(=O)[nH]c2c1 under Bfl-1 A1 inh: -0.5
# Result for CCOc1ccc(N(CC(=O)NC2CCCC2)S(=O)(=O)c2c(C)[nH]c(=O)[nH]c2=O)cc1 under LANA-H2A inh: -2.2
# Result for Cc1cc2oc(=O)cc(CN3CCOCC3)c2cc1Cl under Beta apoptosis: 7
# Result for Cc1c(C(=O)N2CCN(Cc3ccccc3)CC2)oc2c1C(=O)CCC2 under Beta apoptosis: 0
# Result for COc1ccc(C(=O)OCC(=O)NCCc2ccc(F)cc2)cc1S(=O)(=O)N1CCOCC1 under B2AR ag: 3

# Further records follow:
# Below each compound – RanGTP-Impb inh | Beta apoptosis | Bfl-1 A1 inh | Calb FLC | LANA-H2A inh | T cruzi repl | UCH37 DUB inh | B2AR ag
(31) O=C(COc1ccc(S(=O)(=O)N2CCCCC2)cc1)NC1CCCCC1
 : -1.2 | -4 | 0.0 | -24 | 0.8 | 5 | 1.8 | -5
(32) CN(CC(=O)Nc1cccc(F)c1)C(=O)c1csc2c1CCCC2
 : 6.6 | 4 | -0.5 | -4 | -0.9 | -3 | 5.4 | 4
(33) CCOC(=O)C1(CCc2ccccc2)CCN(C(=O)CCc2cnccn2)CC1
 : 0.0 | 5 | -0.1 | -5 | -7.9 | 16 | 0.8 | -5
(34) O=C1CN(C(=O)CSc2nc(-c3ccc(Cl)cc3)cs2)c2ccccc2N1
 : 4.5 | -4 | 0.3 | 22 | 1.2 | 11 | · | -7
(35) O=C(NCc1ccccc1)C1=C[C@H](c2ccc(C(F)(F)F)cc2)C[C@H](OCc2ccc(CO)cc2)O1
 : -0.7 | -4 | 0.2 | -2 | -3.6 | 45 | -1.1 | -4
(36) CCNC(=O)c1cc(Br)ccc1Cl
 : 0.1 | -4 | -0.2 | 36 | -8.4 | -2 | 1.8 | 5
(37) O=C(Nc1ccc([N+](=O)[O-])cc1)c1ccc(Cn2cc([N+](=O)[O-])cn2)cc1
 : 3.3 | 23 | -0.8 | -42 | -7.0 | 43 | · | -3
(38) Cc1ccc(NC(=O)Cc2c(Cl)cccc2Cl)cc1S(=O)(=O)N(C)C
 : 7.4 | · | -1.3 | 0 | -8.2 | -13 | 1.0 | -5
(39) COc1ccc(CN(C)C(=O)Cc2c[nH]c3ccccc23)cc1
 : 0.1 | -12 | -0.2 | 7 | -1.5 | -11 | -2.1 | -2
(40) CCOC(=O)C1CCCNC1=O (stereo unspecified)
 : -1.8 | -4 | -0.1 | -10 | 1.2 | -12 | 2.0 | -1
(41) O=C(/C=C/c1cccs1)c1ccc(NC(=O)c2ccccc2F)cc1
 : -4.2 | 2 | -2.3 | 32 | -1.6 | -3 | 2.2 | -6
(42) COc1cccc2c(=O)n(CC(=O)N3CCCCCC3)ccc12
 : 3.2 | -1 | 0.3 | -2 | -0.1 | -8 | -4.5 | 0
(43) C=CCN1C(=O)C(CC(=O)NCC)SC1=Nc1cc(Cl)ccc1Cl (stereo unspecified)
 : 1.6 | -1 | -0.2 | -19 | -7.3 | 3 | 1.7 | -6
(44) Cn1c(Oc2ccc(F)cc2F)c(C=O)c2ccccc21
 : -2.3 | -5 | 0.7 | 33 | 1.7 | 18 | 1.7 | 12
(45) Cc1nc(NS(=O)(=O)c2ccccc2)sc1NC(=O)Nc1ccc(Cl)cc1
 : -1.9 | 4 | 1.0 | -3 | -3.8 | -3 | 4.3 | 3
(46) COc1cc(Br)cc(CN2CCN(C/C=C/c3ccccc3)CC2)c1O
 : 6.3 | 0 | 0.6 | -15 | -1.7 | 28 | -0.1 | -8
(47) CCOC(=O)C1(Cc2ccc(OC)cc2)CCN(C(=O)c2ccc3[nH]ccc3c2)CC1
 : -1.2 | 5 | 0.5 | 4 | -3.3 | 9 | -1.9 | -2
(48) CCN1C(=O)N(CN2CCOCC2)C2C1N(CN1CCOCC1)C(=O)N2CC (stereo unspecified)
 : 3.9 | · | 1.0 | -12 | -2.7 | 5 | 2.0 | -1
(49) COc1cccc(CNCc2ccc3c(c2)OCO3)c1
 : -0.5 | · | 0.6 | -7 | -2.8 | -13 | -1.5 | -13
(50) Cc1ccccc1CN1CCN(CC(=O)NCc2ccccn2)C1=O
 : 0.8 | · | 0.8 | -6 | -2.0 | -2 | 2.8 | 1
(51) O=[N+]([O-])c1ccc(-c2cn3c(n2)CCC3)cc1
 : -1.3 | 2 | -2.3 | -3 | -0.3 | -17 | 13 | -4
(52) COCCNC(=O)C(c1cccs1)N(C(=O)Cn1nnc2ccccc21)c1ccc2c(c1)OCO2 (stereo unspecified)
 : -3.2 | -6 | 0.1 | 5 | -0.1 | -5 | 3.1 | 4
(53) CCCCOc1ccc(C(=O)NCC(=O)N2CC(C)CC(C)C2)cc1 (stereo unspecified)
 : · | 2 | -1.4 | · | -2.4 | · | 1.9 | 5
(54) Cc1cc(C(=O)CCC(=O)N(C)CC(=O)Nc2ccccc2Br)c(C)s1
 : 4.8 | 0 | 1.6 | 3 | -3.1 | -12 | 1.3 | 4
(55) COc1cccc(CN2CCN(c3ccc(F)cc3)C2=O)c1
 : -0.4 | 0 | -0.6 | 2 | 1.9 | 2 | 0.3 | 1
(56) O=C(O)CCSc1ncnc2sc(-c3ccccc3)cc12
 : 1.6 | -3 | -2.5 | -7 | -0.8 | -2 | -8.8 | 19

# Some of the entries so far, with bars between the fields:
no. | mol | RanGTP-Impb inh | Beta apoptosis | Bfl-1 A1 inh | Calb FLC | LANA-H2A inh | T cruzi repl | UCH37 DUB inh | B2AR ag
47 | CCOC(=O)C1(Cc2ccc(OC)cc2)CCN(C(=O)c2ccc3[nH]ccc3c2)CC1 | -1.2 | 5 | 0.5 | 4 | -3.3 | 9 | -1.9 | -2
48 | CCN1C(=O)N(CN2CCOCC2)C2C1N(CN1CCOCC1)C(=O)N2CC (stereo unspecified) | 3.9 | · | 1.0 | -12 | -2.7 | 5 | 2.0 | -1
49 | COc1cccc(CNCc2ccc3c(c2)OCO3)c1 | -0.5 | · | 0.6 | -7 | -2.8 | -13 | -1.5 | -13
